TRPML1 blocker = human mucolipin-1 channel inhibition; Q9GZU1; TRPML1-inducible cells, Ca2+ dye fluorescence, FDSS; active compounds read low; inhibition of EC80 agonist-evoked calcium signal; activity change, negative = inhibition, % (test concentration not listed); actives 0.02% (n = 390,000); AID 624415; in the data active means activity change below about -50%; inconclusive means about -30% to -50%; inactive means above about -30%;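 further: stimulus is agonist 54-4 at its EC80 concentration; on the % scale 0 is the no-effect control and ±100 the full control effect; compound concentration not given in the record; the text of the record puts the active cut at -80%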
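TRPML1-DL cells, Tet-induced overnight (~16 h, 37 °C) at 1,500 cells/well, were loaded with Ca8 no-wash dye plus quencher for 45-90 min at room temperature. Compounds were pinned during FDSS kinetic reading; agonist 54-4 at EC80 (4 uM final) then added.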
ClpP mod = qHTS Assay for Activators of ClpP | Potency, µM (highest dose often 57.5 µM), inactives show at the highest dose activity change, negative = active | purified B. subtilis ClpP, FRET peptide cleavage, 20 min | actives 1.9% (n = 340,000) | ATP-dependent Clp protease proteolytic subunit (Bacillus subtilis (strain 168)), P80244; active = well fitted falling curve with a large enough effect; inconclusive = small, poorly fitted or top-dose-only effect; inactive = no such curve, though single readings can be large or run the other way; further: potency means the concentration at half of the fitted maximal effect; the source files actives as falling curves though it sought activators and does not explain the sign; nearly all actives have a fitted effect of over 65% in size; many hits overshoot -100%
Target sequence (P80244 whole entry, looked up): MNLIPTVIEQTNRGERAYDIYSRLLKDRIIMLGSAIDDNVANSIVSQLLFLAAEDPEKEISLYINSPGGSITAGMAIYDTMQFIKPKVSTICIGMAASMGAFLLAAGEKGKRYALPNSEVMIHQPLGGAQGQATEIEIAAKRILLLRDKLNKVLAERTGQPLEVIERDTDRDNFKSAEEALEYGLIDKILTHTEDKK
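Buffer: 100 mM Tris/HCl pH8, 100 mM KCl, 0.05% low protease BSA, 2.5% glycerol, 0.01% Tween-20. ClpP 10 microg/mL final; 20 min RT; delta FRET normalized to ADEP and DMSO controls.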
Menin-MLL FL inh = menin-MLL binding inhibition, fluorescein peptide | Fluorescence polarization, fluorescein-MLL peptide displacement from menin | FP activity change, % at 61.4 µM | 290,000 tested, under 10 active; inconclusive = falling polarisation curve, or a change in total fluorescence; inactive = total fluorescence flat and polarisation flat or rising; no compound was filed as active; the % refers to the polarisation; negative = inhibition;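 further: % of control where 0% means no effect; inhibitors lower the polarisation; unlabelled MLL peptide was the positive control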
PINK1 modulator = modulators of PINK1 expression | PINK1 immunofluorescence, high-content cytometry, 24 h | Potency, µM (titrated, usually from 76.6 µM), inactives show at the highest dose activation (PINK1 increase), usual class: activators | actives 0.2% (n = 410,000) | AID 624263; active = well fitted activation curve with a large enough effect; inconclusive = small, poorly fitted or top-dose-only effect; inactive = flat fitted curve, though single readings scatter; cell line not stated here;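 further: potency means the concentration at half of the fitted maximal effect; % of control where 0% means no effect; nearly all actives have a fitted effect of over 65% in size; a mitochondrial uncoupler was the plate control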
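PINK1 protein, normally rapidly degraded, was detected by immunofluorescence after 24 hour compound treatment of a stable cell line. Titration data (5 concentrations) came from laser-scanning cytometry, with CCCP-treated wells as controls.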
TRPV1 potentiator = enhances activation of the human vanilloid receptor TRPV1 | Q8NER1 | TRPV1-expressing cells, Fluo-8 calcium influx, capsaicin EC20 potentiation; host cell line not named in the record; control for the full effect not named in the record | potentiation, % at 8.33 µM | actives 0.02% (n = 320,000) | AID 540277; active means potentiation above 80%; inconclusive means 30% to 80%; inactive means below 30%; further: 0% is about no effect
Target sequence (Q8NER1 whole entry, looked up): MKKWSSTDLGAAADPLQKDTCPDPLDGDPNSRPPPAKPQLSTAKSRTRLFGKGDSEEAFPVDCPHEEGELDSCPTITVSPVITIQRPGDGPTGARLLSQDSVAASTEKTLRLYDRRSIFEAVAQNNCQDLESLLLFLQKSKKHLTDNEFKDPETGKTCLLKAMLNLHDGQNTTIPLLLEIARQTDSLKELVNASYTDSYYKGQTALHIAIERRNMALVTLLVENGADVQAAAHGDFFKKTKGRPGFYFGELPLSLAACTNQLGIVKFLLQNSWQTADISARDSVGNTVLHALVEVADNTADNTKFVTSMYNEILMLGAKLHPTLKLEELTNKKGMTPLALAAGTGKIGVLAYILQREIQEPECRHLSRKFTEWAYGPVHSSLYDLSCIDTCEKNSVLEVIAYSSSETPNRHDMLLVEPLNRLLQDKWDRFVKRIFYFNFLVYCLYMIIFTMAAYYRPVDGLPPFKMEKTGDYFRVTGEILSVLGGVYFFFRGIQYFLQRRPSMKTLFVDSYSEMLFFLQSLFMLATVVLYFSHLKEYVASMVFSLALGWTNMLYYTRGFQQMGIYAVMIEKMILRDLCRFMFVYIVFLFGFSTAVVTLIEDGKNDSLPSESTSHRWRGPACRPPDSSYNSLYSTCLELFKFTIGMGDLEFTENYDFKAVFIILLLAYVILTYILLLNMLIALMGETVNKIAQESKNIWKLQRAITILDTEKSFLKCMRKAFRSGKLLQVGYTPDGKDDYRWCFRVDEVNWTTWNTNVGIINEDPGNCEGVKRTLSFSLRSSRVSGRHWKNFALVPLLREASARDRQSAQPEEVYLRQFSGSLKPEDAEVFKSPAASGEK
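TRPV1-expressing cells were cultured overnight at 35.5C and loaded with Fluo-8 calcium dye for 40 to 90 min at room temperature. After a 10 s baseline, compound was added and calcium influx was read kinetically for 3 min (ex 480/em 520 nm).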
Sfp PPTase inh = blocks B. subtilis Sfp PPTase activity | Biochemical Sfp PPTase activity, qHTS | Potency, µM, for the others: max response, negative = inhibition, hits mostly inhibitors | actives 3.5% (n = 310,000) | Q9F4F7; active means well fitted inhibition curve with a large enough effect; inconclusive means small, poorly fitted or top-dose-only effect, or another doubt; inactive means no such curve, though single readings can be large or run the other way;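 further: the enzyme is Sfp with the accession as filed and its product quenches rhodamine fluorescence; potency means the concentration at half of the fitted maximal effect; 0% = enzyme reaction without inhibitor and -100% = no enzyme wells; top concentration of the series not given in the record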
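After 15 min at room temperature with compound, 15 nM Sfp received 5 uM rhodamine-CoA plus 12.5 uM BHQ-2-ybbR (50 mM Hepes pH 7.6, 10 mM MgCl2). Rate came from the fluorescence difference over 30 min, ex 525/em 598 nm.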
TRPML1 agonist = human mucolipin-1 channel agonism. Q9GZU1. TRPML1-expressing cells, Ca2+ dye fluorescence, FDSS; host cell line not named in the record; reference of the full effect not given here. activation, % (test concentration not listed). actives 0.12% (n = 410,000); in the data active = activation above about 50%; inconclusive = about 30% to 50%; inactive = below about 30%; further: 0% is about no effect; the text of the record puts the active cut at 80%
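TRPML1-DL cells, Tet-induced overnight (~16 h, 37 degrees C), loaded 45-90 min at room temperature with Ca8 no-wash calcium dye plus quencher. FDSS fluorescence: 10 s baseline, compound pin-transfer, 110 s agonist read, then EC80 54-4 (4uM final) and 110 s antagonist read.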
* hit, by the source's call; ? = inconclusive; / = not tested or not shown; & = joins results of further samples; [ ] = remark or other dose.

SMILES | TRPML1 blocker | ClpP mod | Menin-MLL FL inh | PINK1 modulator | TRPV1 potentiator | Sfp PPTase inh | TRPML1 agonist
COC(=O)c1[nH]c2c(c1C)C(=O)CC(c1ccc(C)cc1)C2 (stereo not given) | -9 | -1.1% | -1.9 | 1.1% | 3 | 9% | 0.0
O=C(CNC1CCCCC1)NN=C(c1ccccc1)c1ccccc1 | -14 | -1.5% | -0.7 | 1.2% | -22 | -15% | -1.3
O=C(O)COc1c(F)c(F)c(C(F)(F)F)c(F)c1F | -5 | 0.4% | 0.7 | -2.8% | -3 | 1% | -0.9
Cc1ccc(C)c(-n2cc(CN3CCNC(=O)CC3)c(-c3ccccc3)n2)c1 | 11 | / | -4.3 | -1.4% | 3 | 12% | -0.4
CCOc1ccc(C2CC(=O)n3nc(C45CC6CC(CC(C6)C4)C5)nc3S2)cc1OC (stereo not given) | -5 | -2.0% | 2.9 | 2.9% | -1 | -15% | 0.0
O=C(O)CCCC(=O)Nc1ccc(OCc2nc3ccccc3s2)cc1 | -5 | / | -3.5 | 0.3% | 4 | 8.9µM* | 0.4
CCCCn1c(N)c(N(CCOC)C(=O)c2ccc(Cl)c(S(=O)(=O)N3CCCC3)c2)c(=O)[nH]c1=O | 10 | -4.4% | / | -0.3% | -4 | 17% | -0.3
C[C@@H]1NS(=O)(=O)c2cc(Cl)ccc2O[C@@H]1c1ccccc1 | -13 | -2.9% | / | 3.1% | / | / | -0.6
O=C(c1ccccc1)c1ccc(-n2ccnc2)c([N+](=O)[O-])c1 | 67 | / | 4.2 | 2.4% | -6 | 16% | 1.6
CN(CCc1ccccn1)Cc1ccc(Cl)c(Cl)c1 | 6 | / | -1.5 | -0.3% | ? | -16% | 1.0
O=C(COc1ccccc1)N[C@@H]1c2ccccc2CC[C@H]1OCc1ccccc1 | -2 | 0.4% | / | 24% | / | / | 2.1
COc1ccc(CNC(=O)c2nc(SCc3ccccc3F)ncc2Cl)cc1 | 1 | -4.5% | / | 0.2% | / | / | 3.3
COc1cc(NC(=O)c2cc3cc4ccc(OC)c(Cl)c4nc3s2)cc(OC)c1 | 6 | -4.4% | / | ? | / | / | 0.3
O=C1CCCc2c1cc(C(=O)Nc1ccc(Br)cn1)c(=O)n2-c1ccccc1 | 3 | -3.0% | 13 | -1.5% | -5 | ? | 1.7
CCc1ccc2oc(C(=O)N3CCN(c4ccc(OC)cc4)CC3)cc(=O)c2c1 | -9 | -5.3% | -1.2 | 5.0% | -37 | 5% | 0.3
COc1cc(NCCCC(C)N)c2ncccc2c1 (stereo not given) | -2 | -3.4% | ? | 4.2% | 4 | 56µM* | ?
COc1ccc(C)cc1NC(=O)C(OC(=O)CNC(=O)c1ccc(Br)cc1)c1ccccc1 (stereo not given) | -4 | 2.3% | 6.3 | 1.2% | 24 | 5% | 4.1
COc1ccc(-c2nnc(NC(=O)CS(=O)(=O)c3ccc(F)cc3)o2)cc1 | 0 | -1.6% | / | -1.4% | -13 | / | 0.1
CC1(C)CC(=O)c2cn3ncnc3nc2C1 | -2 | -1.2% | -0.7 | 5.3%[38.3 µM] | 10 | 15% | 0.3
CN(C)c1ccc(/C=C(/C(=O)c2ccc(Cl)cc2Cl)n2cncn2)cc1 | -14 | 1.3% | ? | 4.8% | -11 | -21% | ?
COc1ccc(N(C(=O)CNC(=O)c2ccco2)C(C(=O)NCC2CCCO2)c2ccccc2)c(OC)c1 (stereo not given) | 35 | / | -4.9 | -1.6% | 3 | 25% | 0.6
COC(=O)/C(=C\c1c(OC)cc(OC)cc1OC)C(=O)c1ccc2c(c1)OCO2 | 2&-10 | -1.1% | 0.4 | 0.1% | / | 14% | 0.7&1.8
CCOC(=O)c1cc(C(C)C)sc1NC(=O)COC(=O)c1nccnc1N | 17 | 20µM* | / | 8.3% | 14 | / | -0.9
COc1ccc(CSc2n[nH]c(=O)[nH]c2=O)cc1 | 7 | 2.6% | / | 1.2% | / | / | -0.3
CSc1nnc(CSCc2ccc(Cl)cc2Cl)n1-c1ccccc1 | 10 | 0.5% | 4.5 | 2.6%[38.3 µM] | -8 | -16% | 2.8
O=C(N/N=C/c1ccc2c(c1)OCO2)c1ccc(NS(=O)(=O)c2cccs2)cc1 | -9 | -0.9% | 0.7 | -2.0% | -1 | 5% | -0.1
COCCn1c(=O)c(-c2ccc(F)c(F)c2)nc2cncnc21 | / | / | -0.2 | -1.1% | / | -6% | /
O=C(CN1C(=O)NC2(CCCCCC2)C1=O)Nc1ccc(Cl)c([N+](=O)[O-])c1 | -12 | -0.8% | / | 6.9% | / | / | 3.0
CCN1CCN(S(=O)(=O)c2ccc(Cl)c(C(=O)NC3CC3)c2)CC1 | 14 | 1.3% | / | 0.3% | -3 | / | 4.8
O=C(O)c1c(-c2ccccc2)oc2ccc(OCc3c(F)cccc3Cl)cc12 | -4 | 4.3% | / | -1.3% | / | / | 2.0
CCCCNS(=O)(=O)c1ccc2nc(SCC(=O)Nc3cccc(F)c3)[nH]c2c1 | 11 | -3.7% | / | ? | 13 | 29% | 1.9
CNC(=O)C(=O)Nc1cc2c3c(c1)C(C)C(=O)N3CCC2 (stereo not given) | -2 | -3.2% | / | 1.9% | 5 | 18% | 0.2
COc1ccc2[nH]cc(CCNC(=O)CCC3CCCCC3)c2c1 | 3 | -9.4% | -1.2 | -0.3% | 4 | 10% | 0.6
CC(=O)c1cccc(NS(=O)(=O)c2ccc3c(c2)oc(=O)n3C)c1 | 0 | 1.3% | -0.4 | 1.4%[38.3 µM] | 6 | -15% | -0.5
CCCCCCN[C@H]1CCC2C3CC=C4C[C@@H](O)CC[C@]4(C)C3CC[C@@]21C (stereo not given in full) | 14 | / | / | 6.7% | / | / | 0.9
Cc1ccc(S(=O)(=O)c2cc3c(=O)n4ccccc4nc3n(Cc3ccco3)c2=N)cc1C | 9 | -28% | ? | 7.1% | 6 | 79µM* | 0.2
CCOC(=O)Cc1csc(NC(=O)CSc2nnc(-c3ccc(NS(=O)(=O)CC)cc3)o2)n1 | -2 | -2.5% | / | 4.8%[38.3 µM] | / | / | -0.5
COc1ccc(-c2nnc(SCC(=O)NC(C)c3ccccc3)o2)cc1OC (stereo not given) | -5 | -5.1% | 2.9 | -0.1% | 19 | 18% | -1.7
CS(=O)(=O)c1ccc(C(=O)NCc2ccc(F)cc2)cc1 | -21 | / | -0.9 | 1.2% | -7 | 18% | 0.8
O=C(c1ccccc1C(=O)N1CCN(c2ccccc2)CC1)N1CCN(c2ccccc2)CC1 | 22 | 1.6% | ? | 0.9% | ? | 11% | 8.0
Cc1ccc(S(=O)(=O)N2CCCC(CCC(=O)NCc3ccccc3F)C2)s1 (stereo not given) | 35 | 0.6% | 5.8 | 1.7% | -12 | -11% | 1.5
CCN1CCC(NC(=O)Nc2ccccc2C(=O)OC)CC1 | -7 | ? | -2.2 | -0.3% | ? | 12% | 0.5
Cc1cc(C)n(-c2ncc(C#N)cn2)n1 | -7 | / | -3.3 | -0.5% | ? | -13% | 0.1
O=C(N1CCOCCOc2ccccc2OCCOCC1)C(F)(F)F | 11 | 0.3% | 2.4 | -1.0% | -1 | 10% | -0.1
COc1ccccc1/C=N\NC(=O)c1ccc(COc2ccc(C)c(C)c2)o1 | 11 | / | / | 10% | / | / | 2.5
COc1ccc(NC(=O)CS(=O)CC(=O)N2CCN(C3CCCC3)CC2)cc1 (stereo not given) | -4 | / | 0.6 | 4.9% | -8 | 9% | 1.5
COc1ccccc1C1=Nn2c(nc3sc(C(=O)Nc4ccccc4Cl)c(C)c3c2=O)SC1 | -7 | -7.1% | / | -0.2% | / | / | 0.1
CCc1cc2cccc(C)c2nc1SCC(=O)c1ccc(NC(C)=O)cc1 | 4 | -2.4% | 9.0 | / | 5 | -4% | 1.6
Cn1c(SCC2CCCO2)nnc1-c1ccncc1 (stereo not given) | -11 | -1.7% | 1.5 | 1.8%[38.3 µM] | -3 | -1% | 0.8
Cc1cc(NC(=O)COC(=O)c2ccc([N+](=O)[O-])cc2Cl)no1 | -9 | -2.2% | / | -1.1% | 6 | / | 0.5
CCOC(=O)N1CCC(N2CCCC(C(=O)c3cc(C)c(OC)c(C)c3)C2)CC1 (stereo not given) | -12 | 2.0% | 1.6 | -0.1% | 5 | 17% | 0.0
O=C(Nc1cccc(S(=O)(=O)C(F)(F)F)c1)[C@H]1C[C@H](O)[C@@H](CO)O1 | / | -3.3% | / | -1.1% | / | / | -0.4
CCOc1cc(C(=O)Nc2ccccc2F)cc(Br)c1OCC | 12 | / | 0.9 | 8.4% | -7 | 10% | 5.8
O=[N+]([O-])c1cc(Cl)ccc1Oc1ccc(-c2nnco2)cc1 | 1 | 0.6% | 0.7 | -0.1% | 1 | 0% | -1.1
O=C(Nc1ccc(Cl)c(Cl)c1)Nc1nccs1 | -3 | -0.8% | 0.2 | ? | -18 | 56µM* | 0.6
COc1cc2[nH]c(=O)n(CCC(=O)N3CCN(c4ccc(Cl)cc4)CC3)c(=O)c2cc1OC | -19 | -6.4% | / | 0.5% | / | / | -0.6
Cc1ccc(S(=O)(=O)N(C)C)cc1NC(=O)c1c(-c2c(F)cccc2Cl)noc1C | 30 | / | 0.3 | 2.1% | 1 | 6% | 1.6
COc1ccc(-c2noc(N3CCN(c4ccc(Cl)cc4)CC3)n2)cc1OC | -7 | 0.0% | / | 2.6% | / | / | -0.9
COc1ccc2cc(/C=N/O)c(Cl)nc2c1 | 22 | -8.0% | -15 | 1.7% | 10 | -12% | -1.0
Cc1ccc2nc(COc3cccc(NC(=O)Nc4ccc(C)c(Cl)c4)c3)cc(=O)n2c1 | 25 | -2.8% | / | 8.6% | / | / | -0.5

Entries of single compounds, looked up by structure.
`CCOC(=O)N1CCC(N2CCCC(C(=O)c3cc(C)c(OC)c(C)c3)C2)CC1` (stereo not given) as listed: TRPML1 blocker: -12; ClpP mod: 2.0%; Menin-MLL FL inh: 1.6; PINK1 modulator: -0.1%; TRPV1 potentiator: 5; Sfp PPTase inh: 17%; TRPML1 agonist: 0.0
`COc1ccc2cc(/C=N/O)c(Cl)nc2c1` as listed: TRPML1 blocker: 22; ClpP mod: -8.0%; Menin-MLL FL inh: -15; PINK1 modulator: 1.7%; TRPV1 potentiator: 10; Sfp PPTase inh: -12%; TRPML1 agonist: -1.0

Bioassay records: PubChem, National Center for Advancing Translational Sciences (NCATS)
